Rango dissoc inh: qHTS Assay for Inhibitors of RanGTP induced Rango (Ran-regulated importin-beta cargo) - Importin beta complex dissociation | Potency, µM (highest dose often 46.1 µM), for inactives: at the highest dose activity change, negative = inhibition | Biochemical FRET Rango-importin beta, RanGTP-induced dissociation | AID 540253, 2011 | hit rate 0.071% among 340,000 | Snurportin-1 (Homo sapiens) + GTP-binding nuclear protein Ran (Homo sapiens) + Importin …; active means falling FRET ratio curve, often poorly fitted, with flat reads before Ran was added; inconclusive means other falling curves, or compound fluorescence or quenching; inactive means flat or rising ratio curve;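 note: potency is the fitted concentration of half-maximal effect; % of control where 0% means no effect; nearly all actives have a fitted effect of over 45% in size; -100% = wells without RanGTP and RCC1; the record marks most hits as doubtful in a second field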
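Recombinant Rango FRET biosensor (EYFP–snurportin 1 IBB–cerulean CFP10) at 0.1 uM premixed with 0.25 uM importin beta in PBS, 1 mM DTT, 0.02% Tween-20, 0.1% BSA. Compound added 5 min; RanGTP-RCC1 (0.6 uM Ran, 2 mM GTP, 0.2 uM RCC1) then triggers release, read at 45 min.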
GLA inh pH 4.5: qHTS Assay for Inhibitors of Human alpha-Galactosidase at pH 4.5; Alpha-galactosidase A (Homo sapiens), P06280; purified enzyme, 4-MU-alpha-Gal fluorescence, pH 4.5; activity change, negative = inhibition, % at 105 µM; AID 1467, 2008; 230,000 tested, under 10 active; inconclusive = small, poorly fitted or top-dose-only inhibition, or a rising curve; inactive = flat fitted curve, though single readings scatter; no compound was filed as active;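 note: 0% = full activity with enzyme and -100% = basal without enzyme; dose as in the result columns while the protocol names 77 µM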
Target sequence (P06280 whole entry, looked up): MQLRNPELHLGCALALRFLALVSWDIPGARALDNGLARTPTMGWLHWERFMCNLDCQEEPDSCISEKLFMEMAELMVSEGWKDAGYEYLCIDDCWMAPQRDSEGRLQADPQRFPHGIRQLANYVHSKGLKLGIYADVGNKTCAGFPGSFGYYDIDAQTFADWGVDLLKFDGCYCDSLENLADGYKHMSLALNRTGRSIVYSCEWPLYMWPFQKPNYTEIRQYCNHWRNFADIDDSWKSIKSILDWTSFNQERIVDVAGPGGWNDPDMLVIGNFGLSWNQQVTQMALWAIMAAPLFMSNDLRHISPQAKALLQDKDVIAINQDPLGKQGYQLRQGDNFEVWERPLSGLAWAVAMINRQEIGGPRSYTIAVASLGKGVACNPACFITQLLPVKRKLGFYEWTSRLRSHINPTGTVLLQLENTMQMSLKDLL
miR-21 reporter: qHTS Assay for Modulators of miRNAs and/orActivators of miR-21 | HeLa miR-21 FLuc reporter, luciferase, 48 h | 340,000 tested, under 10 active | Potency, µM (top dose mostly 38.3 µM), inactives show top-dose reporter change, positive = more light; active = well fitted rising curve with a large enough effect; inconclusive = small, poorly fitted or top-dose-only effect; inactive = no such curve, though single readings can be large or run the other way;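 note: % of control where 0% means no effect; miR-21 action dims this reporter so a rising signal means less miR-21 action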
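Compounds were titrated across several concentrations (up to approximately 40 uM) and incubated 48 hours with HeLa miR-21-FLuc reporter cells (miR-21 target sequence downstream of FLuc, endogenous miR-21). Readout was firefly luciferase luminescence after lytic detection reagent.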
Rango complex inh: qHTS Assay for Inhibitors of Rango (Ran-regulated importin-beta cargo) - Importin beta complex formation. hit rate 0.031% among 340,000. Importin subunit beta-1 (Homo sapiens), Q14974. Potency, µM (highest dose often 92.2 µM), inactives show top-dose inhibition of complex formation. AID 540263, 2011. Rango CFP/YFP FRET sensor + importin beta, 45 min; active = rising FRET ratio curve, often small or poorly fitted; inconclusive = mostly compound fluorescence or quenching in the first reads; inactive = flat curves in all reads;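 note: potency is the fitted concentration of half-maximal effect; 0% = DMSO wells and 100% = buffer wells lacking importin beta; nearly all actives have a fitted effect of over 15% in size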
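Inhibition scored from the CFP 486 nm/YFP 530 nm FRET ratio 45 min after adding 0.125 microM importin beta to 50 nM Rango biosensor preincubated 5 min with compound (room temperature, PBS with DTT, Tween-20, BSA). No-importin wells as positive control.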
Numbers without * were called inactive; ? = inconclusive; nt = no result given; & = joins results of further samples.

SMILES	Rango dissoc inh	GLA inh pH 4.5	miR-21 reporter	Rango complex inh
CC(C)[C@H](NC(=O)c1ccco1)C(=O)OCC(=O)N1CC(=O)Nc2ccccc21	3%	-3	-1%	-0.2%
Cc1cc(Cl)c(S(=O)(=O)NCc2cccnc2)cc1OCC(N)=O	4%	3	-1%	-2.3%
C=CCNC(=O)Nc1ccc2nc(C)sc2c1	2%	4	-34%	?
CCCCn1ccnc1C(=O)c1ccc(S(=O)(=O)N2CCCC2)cc1	3%	-16	-13%	1.1%
Cn1cc(S(=O)(=O)N2CCCC(C(=O)O)C2)cn1 (stereo unspecified)	0%	-15	0%	3.5%
O=c1[nH]c2ccc(NC(=S)Nc3ccc(F)cc3)cc2[nH]1	-7%	-3	1%	-3.7%
O=C1/C(=C\c2cc([N+](=O)[O-])ccc2O)SC(=S)N1Cc1ccc(Cl)cc1	?	nt	12%	0.6%
CC(=O)Nc1ccc(NC(=O)c2cc(S(=O)(=O)N3CCCCC3)ccc2N2CCOCC2)cc1	21%	nt	nt	0.1%
COCC(=O)Nc1cc(Cl)ccc1C	2%	6	2%	1.6%
O=C(COC(=O)c1cc(S(=O)(=O)NCc2ccccc2)ccc1O)c1cc2ccccc2o1	-6%	-4	-10%	-2.9%
COc1cc(C=C2C(=O)OC(C)(C)OC2=O)ccc1OCC(=O)Nc1ccccc1	3%	-1	-53%	-0.4%
O=C(Nc1ccc(Cl)cc1)c1ccc(Br)cc1F	0%	4	-45%	-1.1%
NC(=O)c1nsc(C(=O)N(CC(=O)NCc2ccccc2)c2ccc(F)cc2)c1N	-1%	nt	-2%	-2.6%
COc1ccc2nc(SCC(=O)/C(C#N)=C(\C)N)[nH]c2c1	2%	0	-33%	-0.8%
COc1ccc2oc(=O)c(C(=O)NCc3ccccn3)cc2c1	?	-11	-45%	?
Cc1ccc(C)c(N(CC(=O)NCCSCc2ccco2)S(C)(=O)=O)c1	-15%	-10	-3%	0.0%
CN(C)CCOC(c1ccc(Cl)cc1)c1ccccn1 (stereo unspecified)	-8%&-1%	-1&-1	-5%	-2.1%&-1.9%
CS(=O)(=O)N(CC(=O)NCC1CCCO1)Cc1ccc(Cl)cc1 (stereo unspecified)	-6%	-2	-1%	-4.7%
O=C(CCCOc1ccccc1)Nc1nncs1	11%	11	-13%	-1.1%
CS(=O)(=O)N(CC(=O)Nc1ccccc1C(=O)NCc1ccccc1)c1ccc2c(c1)OCCO2	?	0	3%	0.1%
CN(C)S(=O)(=O)N1CCC(CO)(Cc2cccc(C(F)(F)F)c2)CC1	-11%	-6	0%	0.7%
O/N=C/c1cn(-c2ccc(Cl)cc2)nn1	8%	5	-66%	0.5%
CCN(CC)CCCNC(=O)Cn1nc(-c2ccccc2)ccc1=O	-4%	0	-5%	3.4%
CC(C)(Cc1ccccc1)NC(=O)C(=O)c1cn(CC(=O)N2CCOCC2)c2ccccc12	0%	nt	-3%	-1.7%
COc1cc(C=O)ccc1OCC(=O)N1CCOCC1	-13%	2	-11%	-0.8%
COc1ccc(-c2[nH]ncc2/C=N\NS(=O)(=O)c2ccc(Cl)cc2)cc1	-7%	4	5%	-4.9%
COC(=O)c1cccc(NC(=O)c2cc3ccccc3o2)c1	2%	nt	-14%	3.0%
Cc1c(N(C)C(=O)c2ccccc2F)c(=O)n(-c2ccccc2)n1C	1%	3	0%	0.9%
CCOc1ccc(N(C(=O)CNC(=O)c2ccco2)C(C(=O)NC2CCCC2)c2ccco2)cc1 (stereo unspecified)	-5%	nt	0%	-2.7%
O=C(CCn1nc(-c2ccccc2)c2ccccc2c1=O)Nc1cccnc1	-7%	2	1%	1.8%
Cc1ccccc1NC(=O)Cc1nc(COC(=O)CCOc2ccccc2)cs1	6%	nt	-1%	0.0%
CCCOc1ccc(NC(=O)c2cc3cc(C)ccc3[nH]2)cc1	6%	nt	-16%	-0.8%
CSCCC(C(=O)N1CC2(C)CC1CC(C)(C)C2)N1C(=O)c2ccccc2C1=O (stereo unspecified)	-3%	1	-9%	-2.2%
COc1ccc(NC(=O)COC(=O)CCc2cc(OC)c(OC)c(OC)c2)c([N+](=O)[O-])c1	4%	nt	9%	-2.4%
CCC(C)C(NC(=O)C1CCC(=O)N1C(=O)OCc1ccccc1)C(=O)NC(Cc1ccccc1)C(N)=O (stereo unspecified)	-3%	nt	-3%	4.6%
O=[N+]([O-])c1cccc(OCC(O)CN2CCN(S(=O)(=O)c3cc(Cl)ccc3Cl)CC2)c1 (stereo unspecified)	23%	nt	0%	-0.6%
CCN1CCN(c2oc(-c3ccco3)nc2C#N)CC1	-6%	0	-1%	?
CC(=O)c1ccc(C(=O)N2CCCC(CNC(=O)c3ccccc3Cl)C2)cc1 (stereo unspecified)	15%	nt	-9%	0.1%
Cc1cccc(C)c1NC(=O)CNC(=O)c1ccc(S(=O)(=O)NCc2ccco2)cc1	-4%	nt	nt	0.6%
COc1ccc(CCN2C(=O)CS/C2=N/NC(=O)c2ccccc2F)cc1OC	-1%	4	1%	-1.0%
CCCOc1ccccc1/C=C1\SC(N)=NC1=O	1%	nt	0%	?
COc1cccc(CNC(=O)CCC2CCCN(c3cc(C)nc(N(C)C)n3)C2)c1 (stereo unspecified)	4%	-15	-4%	-1.1%
CCON1C(=O)C2(CCCCC2)C(=O)C12C=CCCC2 (stereo unspecified)	13%	nt	nt	3.7%
O=C(O)c1cccc(Nc2nc3ccccc3nc2NS(=O)(=O)c2ccc(F)cc2)c1	1%	nt	nt	0.6%
CCOC(=O)CSC1=C(C#N)C(c2ccc(C)o2)CC(=O)N1 (stereo unspecified)	-1%	-12	27%	0.0%
CC(Sc1nc2cc([N+](=O)[O-])ccc2n1-c1ccc(F)cc1)C(=O)NCc1ccc2c(c1)OCO2 (stereo unspecified)	6%	6	-5%	11%
COc1ccc(C(=O)OCCc2sc[n+](CC(=O)c3ccccc3)c2C)cc1	-11%	nt	-11%	-4.9%
Cc1ccc(-c2onc(C)c2C)cc1S(=O)(=O)N1CCOc2ccccc21	1%	nt	18%	-4.1%
COc1ccc(CNCc2cccc(Cl)c2)cc1	7%	1	-13%	-1.5%
C=CCN(C(=O)CNC(=O)c1ccco1)C(C(=O)NC1CCCCC1)c1ccc(F)cc1 (stereo unspecified)	3%	1	-2%	-0.4%
Cc1ccc(-c2nnc(Nc3ccc(CC(N)=O)cc3)c3ccccc23)cc1	-11%	-4	6%	0.0%
CCOc1ccc(Br)cc1C1=CC(=O)C[C@H](c2ccc(OC)cc2)C1	14%	nt	nt	0.1%
CCCCN1CCNC1=S	14%	1	-1%	-1.4%
CCCCNC(=O)CCCn1c(=O)c2ccccc2n(CC(=O)NCCC2=CCCCC2)c1=O	0%	-4	-2%	0.9%
CC(C)Sc1nc2c(c(=O)[nH]c(=O)n2C)n1C	8%	-5	-29%	3.0%
COC(=O)c1ccc(COc2cccc3c2OC(C)(C)C3)cc1	-4%	nt	-15%	3.3%
CCn1ccnc1C(O)c1cccc(OC)c1OC (stereo unspecified)	-10%	3	6%	-2.2%
O=C(/C=C/c1ccc(-c2ccccc2)cc1)NCc1cccnc1	23%	nt	-24%	3.1%
CC(=O)N1CCN(c2ccc([N+](=O)[O-])cc2C#N)CC1	-25%	-2	1%	1.9%
N/C(=N\OS(=O)(=O)c1ccc(Cl)cc1)c1ccncc1	-5%	3	0%	-2.0%
The results go on.
SMILES	Rango dissoc inh	GLA inh pH 4.5	miR-21 reporter	Rango complex inh
CCC1Oc2ccc(C)cc2N(CC(=O)N(Cc2cccnc2)Cc2cccc(F)c2)C1=O (stereo unspecified)	-3%	1	2%	-0.7%
CCn1ccnc1CN1CCCCC1C(=O)Nc1ccc(Oc2cccnc2)cc1 (stereo unspecified)	18%	nt	9%	0.1%
CCOc1ccc(Cl)cc1S(=O)(=O)N1CCC(C(=O)N2CCCC2)CC1	8%	nt	-2%	-0.3%
CCCn1c(=N)n(CC(O)c2ccco2)c2ccccc21 (stereo unspecified)	?	3	-2%	1.1%
COc1ccc(/C(C)=N/NC(=O)c2ccncc2)cc1	-2%	nt	-4%	-2.6%
CCn1cc(S(=O)(=O)c2ccc(C)cc2)[nH]c1=O	-9%	9	4%	0.9%
Oc1c(/C=C/C=C/C=Nc2ccccc2)sc(=S)n1Cc1ccccc1	?	-8	-26%	-1.4%
O=C(NCC1CCCCC1)c1cccc(S(=O)(=O)NCc2cccnc2)c1	-2%	2	1%	-1.2%
CCOC(=O)C(=CNc1nc(-c2ccc3ccccc3c2)cs1)C(=O)OCC	0%	nt	-47%	-0.3%
CNC(=O)CC1C(=O)N(C)C(=S)N1NC(=O)c1ccc(Cl)cc1 (stereo unspecified)	?	2	-6%	-1.2%
COCCCNC(=O)c1ccc2c(c1)ncn2-c1ccccc1OC	-2%	-5	-7%	0.5%
Cc1ccc(C)c(OCC(=O)Nc2ccccc2N2CCCC2)c1	-9%	nt	-4%	0.2%
COc1ccc(-n2nnnc2/C=C\Nc2ccccc2C(=O)c2ccccc2)cc1	15%	-1	20%	-4.6%
COc1ccccc1NC(=O)CCN1CCN(CCC(=O)Nc2ccccc2OC)CC1	nt	4	9%	nt
O=C(NCCc1ccc(Cl)cc1)c1ccc(CS(=O)Cc2ccc(Cl)cc2)o1 (stereo unspecified)	21%	nt	20%	3.7%
Cc1ccc(N/C(N)=N/c2nc(C)cc(C)n2)cc1	0%	3	-10%	-0.6%
Cn1c(=O)c2c(ncn2CC(=O)N2CCN(c3ccccc3)CC2)n(C)c1=O	5%	-17	0%	0.5%
CCCCCCCCCCn1c2c(c(=N)c3c1CCC3)CCC2	-11%	-4	?	1.7%
O=c1c(O[C@H]2O[C@@H](CO)[C@H](O)[C@@H](O)[C@@H]2O)c(-c2ccc(O)cc2)oc2cc(O)cc(O)c12	-5%	nt	nt	0.4%
O=C(CSc1nnc(-c2ccco2)o1)Nc1ccccc1Cl	-5%	nt	-36%	-3.7%
CN1CC(=O)N(CC(=O)Nc2ccc(OCc3ccccc3)cc2)C1=O	-3%	nt	nt	-1.2%
c1ccc(-c2nn(-c3ccccc3)[n+](-c3ccccc3)n2)cc1	5%	nt	nt	2.1%
Cc1ccc(C(=O)COC(=O)CNC(=O)c2cccs2)cc1	7%	7	-2%	0.1%
CCCS(=O)(=O)N1CCC(C(=O)NCc2ccc3c(c2)OCO3)CC1	-1%	2	1%	?
CC(C)N(C(=O)[C@H]1CC(CC(=O)NC(C)(C)C)C(=O)N2CCc3c([nH]c4ccccc34)[C@]12C)C(C)C (stereo partly specified)	-1%	nt	nt	0.5%
CS(=O)(=O)N1CCC(C(=O)NCc2ccc(Cl)cc2)CC1	8%	-8	0%	-4.1%
CCC(C)NC(=S)Nc1ccc(F)cc1 (stereo unspecified)	-1%	5	-4%	-3.3%
COc1nc(Nc2ccc([N+](=O)[O-])cc2)nc(NC2CCCCC2)n1	-4%	-10	-4%	-2.0%
O=C(CSCc1ccc(Br)cc1)Nc1ccccc1C(=O)N1CCOCC1	-4%	nt	nt	-2.1%

Pulled by structure from the list above, 5 records:
SMILES	Rango dissoc inh	GLA inh pH 4.5	miR-21 reporter	Rango complex inh
c1ccc(-c2nn(-c3ccccc3)[n+](-c3ccccc3)n2)cc1	5%	nt	nt	2.1%
CS(=O)(=O)N1CCC(C(=O)NCc2ccc(Cl)cc2)CC1	8%	-8	0%	-4.1%
CC(C)N(C(=O)[C@H]1CC(CC(=O)NC(C)(C)C)C(=O)N2CCc3c([nH]c4ccccc34)[C@]12C)C(C)C (stereo partly specified)	-1%	nt	nt	0.5%
CCCS(=O)(=O)N1CCC(C(=O)NCc2ccc3c(c2)OCO3)CC1	-1%	2	1%	?
CN1CC(=O)N(CC(=O)Nc2ccc(OCc3ccccc3)cc2)C1=O	-3%	nt	nt	-1.2%

Assay outcomes deposited in PubChem by National Center for Advancing Translational Sciences (NCATS).

Only part of the results is shown; rates above refer to the full screens.
